Screens from PubChem.
Methyltransferases: Primary Screen for Target Class Profiling of Small Molecule Inhibitors of Methyltransferases; purified enzyme, MTase-Glo SAH luminescence; active compounds read low; calls only at 40 µM; actives 3.9% (n = 25,000); active = -50% or lower on at least one of six enzymes; inconclusive = the cases between; inactive = as a rule above -30% on all six;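 further: enzymes were COMT GAMT GNMT HNMT NNMT and PNMT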
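Each enzyme was reacted with SAM and its substrate, with compounds tested once at 40 uM; SAH formed was read by MTase-Glo luminescence.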
Calls only. On the % scale 0 is the no-effect control and ±100 the full control effect. This is a subset. The share of hits here may be higher or lower than overall.

Screening Cc1ccc(OCc2nc(C3CCCCN3C(=O)c3ccncc3)no2)cc1 (stereo not drawn) returned Methyltransferases inactive.
`Cc1cccc(N2C(=O)c3cc4occc4n3CC2(C)C(=O)NC2CCC(C)CC2)c1C` (stereo not drawn) gave Methyltransferases inactive.
For C/C=C/C=C/C(O)=C1\C(=O)[C@]2(C)C3C(C(=O)CC/C=C/C)=C(O)C4(C)C1[C@]1(C)O[C@@]4(O)[C@@]3(C)O[C@@]12O the results were Methyltransferases inactive.
`CCOc1cc(CC(=O)N[C@@H](CC(C)C)c2ccccc2N2CCCCC2)ccc1C(=O)O` gave Methyltransferases inconclusive.
CCc1ccccc1NS(=O)(=O)c1ccc2c(c1)n(C)c(=O)n2C was read as Methyltransferases inactive.
Screening CN1C(=O)c2cc(C(=O)NCCN3CCOCC3)nn2CC1(C)C(=O)NCc1ccccc1 (stereo not drawn) returned Methyltransferases inactive.
Screening CCn1c(C)ccc(C(=O)N2CCc3[nH]nc(-c4ccccc4F)c3C2)c1=O returned Methyltransferases inactive.
Cc1ccccc1CNC(=O)Cn1ccc2cc(S(=O)(=O)N3CCCCC3)ccc21 was read as Methyltransferases inactive.
`CC(=O)N1Cc2ccccc2CC2(CCN(Cc3ccc(O)cc3)CC2)C1` gave Methyltransferases inactive.
`Cc1ccc(CN2C(=O)c3ccc(-c4ccccc4)n3CC2(C)C(=O)NC2CCCCC2)cc1` (stereo not drawn) gave Methyltransferases inactive.
Screening COCCN1C(=O)c2cc3occc3n2CC1(C)C(=O)NC1CCC(C)CC1 (stereo not drawn) returned Methyltransferases inactive.
CNc1cc(C2CC(Nc3nc(N)nc(C)c3Cl)C2)nc(COC)n1 (stereo not drawn) was read as Methyltransferases inactive.
For Cc1ccc(CNC(=O)c2ccc3c(=O)[nH]c4c(C(=O)NCC5CCCO5)sc(=S)n4c3c2)cc1 (stereo not drawn) the results were Methyltransferases inactive.
`CCOC(=O)c1cc2n(n1)CC(C)(C(=O)NC1CCCC1)N(Cc1ccc(C)cc1)C2=O` (stereo not drawn) gave Methyltransferases inactive.
`CCc1ccc(CN2C(=O)c3sccc3-n3cccc3C2C(=O)NC2CCCCCC2)cc1` (stereo not drawn) gave Methyltransferases inactive.

Structural class, those above with four or more nitrogen atoms.
Screening Cc1ccc(OCc2nc(C3CCCCN3C(=O)c3ccncc3)no2)cc1 (stereo not drawn) returned Methyltransferases inactive.
Screening CN1C(=O)c2cc(C(=O)NCCN3CCOCC3)nn2CC1(C)C(=O)NCc1ccccc1 (stereo not drawn) returned Methyltransferases inactive.
Screening CCn1c(C)ccc(C(=O)N2CCc3[nH]nc(-c4ccccc4F)c3C2)c1=O returned Methyltransferases inactive.
CNc1cc(C2CC(Nc3nc(N)nc(C)c3Cl)C2)nc(COC)n1 (stereo not drawn) was read as Methyltransferases inactive.
For Cc1ccc(CNC(=O)c2ccc3c(=O)[nH]c4c(C(=O)NCC5CCCO5)sc(=S)n4c3c2)cc1 (stereo not drawn) the results were Methyltransferases inactive.
`CCOC(=O)c1cc2n(n1)CC(C)(C(=O)NC1CCCC1)N(Cc1ccc(C)cc1)C2=O` (stereo not drawn) gave Methyltransferases inactive.

Of the compounds above, these have an NH in an aromatic ring:
Screening CCn1c(C)ccc(C(=O)N2CCc3[nH]nc(-c4ccccc4F)c3C2)c1=O returned Methyltransferases inactive.
For Cc1ccc(CNC(=O)c2ccc3c(=O)[nH]c4c(C(=O)NCC5CCCO5)sc(=S)n4c3c2)cc1 (stereo not drawn) the results were Methyltransferases inactive.

Next section:
Screening Cc1ccc(Cn2c(=O)c3ccccc3n3c(-c4ccccc4O)nnc23)cc1 returned Methyltransferases inactive.
CC(=O)Nc1ccc(NS(=O)(=O)c2ccc3[nH]c(=O)[nH]c3c2)cc1 was read as Methyltransferases inactive.
O=C(Cn1nc2n(Cc3ccc(F)cc3)c(=O)c3ccccc3n2c1=O)Nc1cc(F)ccc1F was read as Methyltransferases inactive.
Screening COc1ccc(CC(=O)NCc2ccccc2-c2ccccc2C(=O)NCCc2cccnc2)cc1 returned Methyltransferases inactive.
CCn1c(CO)nnc1C1CC(NC(=O)c2oc3cc(OC)ccc3c2C)C1 (stereo not drawn) was read as Methyltransferases inactive.
CN[C@@H]1[C@H](O[C@H]2[C@H](O[C@@H]3[C@@H](O)[C@H](O)[C@@H](N=C(N)N)[C@H](O)[C@H]3N=C(N)N)O[C@@H](C)[C@]2(O)CO)O[C@@H](CO)[C@H](O)[C@H]1O was read as Methyltransferases inactive.
Screening COc1cccc(-c2cc(CC3(O)CCN(c4nnc(C)o4)CC3)on2)c1 returned Methyltransferases inactive.
`CCOCCCNc1nc2c(S(=O)(=O)c3ccc(CC)cc3)nnn2c2ccc(Cl)cc12` gave Methyltransferases inactive.
Cc1ccc([S+](=O)([O-])N2CCCC2C(=O)N2CCC(c3nc4ccncc4[nH]3)CC2)cc1 (stereo not drawn) was read as Methyltransferases inactive.
CCN1C(=O)c2cc(C(=O)NCc3cc(OC)ccc3OC)nn2CC1(C)C(=O)NC1CCCC1 (stereo not drawn) was read as Methyltransferases inactive.
`CCOC(=O)c1cc2n(n1)CC(C)(C(=O)NC1CCCC1)N(c1cccc(Cl)c1C)C2=O` (stereo not drawn) gave Methyltransferases inactive.
For Cc1ccc(NC(=O)Cn2nc3n(CCC(C)C)c(=O)c4ccccc4n3c2=O)c(C)c1 the results were Methyltransferases inactive.
Screening Cc1ccc(Cl)cc1N1C(=O)c2cc(C(C)C)nn2CC1(C)C(=O)NC1CCCCC1 (stereo not drawn) returned Methyltransferases inactive.
CCOc1ccc(CN2C(=O)c3cc4oc(C)cc4n3CC2(C)C(=O)NC2CCCCCCC2)cc1 (stereo not drawn) was read as Methyltransferases inactive.
Screening CC(C)OCCCNC(=O)c1cc2n(n1)CC(C)(C(=O)NC1CCCC1)N(C)C2=O (stereo not drawn) returned Methyltransferases inactive.

Already shown: 2 of the compounds above.
CCOc1ccc(CN2C(=O)c3cc4oc(C)cc4n3CC2(C)C(=O)NC2CCCCCCC2)cc1 (stereo not drawn) was read as Methyltransferases inactive.
Screening CC(C)OCCCNC(=O)c1cc2n(n1)CC(C)(C(=O)NC1CCCC1)N(C)C2=O (stereo not drawn) returned Methyltransferases inactive.

(listing goes on)
Screening CN(CCc1noc(C2CN(S(=O)(=O)c3ccccc3)C2)n1)C(=O)c1ccncc1 returned Methyltransferases inactive.
OC[C@@H]1CN(Cc2cccnc2)C[C@H]1c1ccccn1 was read as Methyltransferases inactive.
For COc1ccc(OC)c(CCNC(=O)CCc2nnc3n(CCCOC(C)C)c(=O)c4ccccc4n23)c1 the results were Methyltransferases inactive.
Screening Cc1cccc(OCC(=O)NCc2nnc3c(-c4nc(C)no4)cccn23)c1 returned Methyltransferases inactive.
For CCCn1c(=O)c2ccc(C(=O)NC(C)C)cc2n2c(SCC(=O)NC(C)C)nnc12 the results were Methyltransferases inactive.
`COc1ccc(-c2cc(C(=O)N3C[C@@H](CN(C)C)[C@@H](CO)C3)[nH]n2)cc1` gave Methyltransferases inactive.
Screening CCc1ccc(N2C(=O)c3cc4occc4n3CC2(C)C(=O)NC2CCCCCCC2)cc1 (stereo not drawn) returned Methyltransferases inactive.
For COc1ccc(OC)c(CCNC(=O)CCc2nnc3n(Cc4ccc(Cl)cc4)c(=O)c4ccccc4n23)c1 the results were Methyltransferases inactive.
`O=C(CN1C(=O)C(c2ccccc2)=NC12CCCC2)NC1CCCC1` gave Methyltransferases inactive.
Screening COc1ccccc1NS(=O)(=O)c1ccc2c(c1)n(C)c(=O)n2C returned Methyltransferases inactive.
Screening OCCN1CCN(CC/C=C2/c3ccccc3Sc3ccc(C(F)(F)F)cc32)CC1 returned Methyltransferases inconclusive.
`O=C(N[C@@H]1CN(C2CCOCC2)CC[C@@H]1CO)c1ccccc1` gave Methyltransferases inactive.
For Cc1ccc([S+](=O)([O-])NC[C@@H]2CC[C@H]3C[C@@H]2C3(C)C)cc1 the results were Methyltransferases inactive.
For CC(C)CC(=O)N1CCCC(Cc2nc(C3CCOCC3)no2)C1 (stereo not drawn) the results were Methyltransferases inactive.
For O=C(NCc1ccccc1)[C@@H]1Cc2nc[nH]c2CN1Cc1cccc(OC(F)(F)F)c1 the results were Methyltransferases inactive.
For Cc1ccc2c(cnn2C(=O)CCC(=O)N2CCN(C)CC2)c1 the results were Methyltransferases inactive.
`O=c1cc(-c2cccnc2)oc2c(NCc3ccc(F)cc3)nccc12` gave Methyltransferases inactive.
Cc1nn(C)c(C)c1CCC(=O)N1CCC(C2CCN(S(C)(=O)=O)CC2)C1 (stereo not drawn) was read as Methyltransferases inactive.
CCOC(=O)c1cc2n(n1)CC(C)(C(=O)NCCCOC)N(c1ccc(F)cc1C)C2=O (stereo not drawn) was read as Methyltransferases inactive.
CCCn1c(=O)c2ccccc2n2c(=O)n(Cc3c(F)cccc3Cl)nc12 was read as Methyltransferases inactive.
COc1c(C)c(OCC(O)C(C)(C)O)cc2c1CNC2=O (stereo not drawn) was read as Methyltransferases inactive.
CC1CCCCN1CCN1C(=O)c2ccc(-c3ccco3)n2CC1(C)C(=O)NC1CCCC1 (stereo not drawn) was read as Methyltransferases inactive.
`COc1cccc(CN2C(=O)c3cc4ccccc4n3CC2(C)C(=O)NCCC(C)C)c1` (stereo not drawn) gave Methyltransferases inactive.
`CN1C(=O)c2cc(C(=O)NCc3ccccc3Cl)nn2CC1(C)C(=O)NCc1ccc(F)cc1` (stereo not drawn) gave Methyltransferases inactive.
For Cc1ccc(C2=NC3(CCN(C(=O)c4n[nH]c5c4CCCC5)CC3)ON2)cc1 the results were Methyltransferases inactive.
`Cc1cccc(C2c3cccn3-c3sc4c(c3CN2C(=O)NC(C)C)CCCC4)c1` (stereo not drawn) gave Methyltransferases inactive.
Screening CC(O)(CC(=O)O)CC(=O)O[C@@H]1[C@@H](O)[C@H](OCCc2ccccc2)O[C@H](CO)[C@H]1O (stereo partly drawn) returned Methyltransferases inactive.
For CCOC(=O)c1cccc(NC(=O)C2=CC(C)(C)Oc3ccc(OC)cc32)c1 the results were Methyltransferases inactive.
For Cn1cnc(S(=O)(=O)N2CC(c3nc(-c4ccncc4)no3)C2)c1 the results were Methyltransferases inactive.
Screening CCc1cc(CC[C@]2(C3CCCC3)CC(O)=C(Cc3nc4nc(C)cc(C)n4n3)C(=O)O2)cc(CC)n1 returned Methyltransferases inactive.
CC(C)CCn1c(=O)c2ccc(C(=O)NC(C)C)cc2n2c(=O)[nH]nc12 was read as Methyltransferases inactive.
For CCCNC(=O)N1CCC(Cc2ccc(CCNC(C)=O)cc2)CC1 the results were Methyltransferases inactive.
Screening COc1cccc(NC(=O)CSc2nnc3n(CC(C)C)c(=O)c4cc(F)ccc4n23)c1 returned Methyltransferases inactive.
`CNC(=O)CCn1ccc2cc(S(=O)(=O)N3CCCCC3)ccc21` gave Methyltransferases inactive.
`COc1ccccc1N1CCN([C@@H]2[C@H](O)[C@H](CO)O[C@@H]2CNC(=O)c2ccccc2)CC1` gave Methyltransferases inactive.
`O=C(NCc1cc2n(n1)CCCN(C1CCCCC1)C2)c1cccc(F)c1` gave Methyltransferases inactive.
Screening Cc1cccc(N2CCN(C(=O)c3cc(S(=O)(=O)N(C)C)ccc3N3CCCC3)CC2)c1C returned Methyltransferases inactive.
Cc1ccc(C)c(Cn2nc3n(Cc4ccccc4)c(=O)c4ccccc4n3c2=O)c1 was read as Methyltransferases inactive.
COCCCNC(=O)C1(C)Cn2nc(-c3ccccc3)cc2C(=O)N1c1ccc(C)cc1C (stereo not drawn) was read as Methyltransferases inactive.
Screening CCCn1c(=O)c2cc(Cl)ccc2n2c(SCc3ccc(C)cc3)nnc12 returned Methyltransferases inactive.
COc1ccccc1NC(=O)Cn1nc2n(CCCOC(C)C)c(=O)c3ccccc3n2c1=O was read as Methyltransferases inactive.
For CNC(=O)c1cc(C2CC2)nc2c1c(C1CCCN1C(=O)c1ccc(C(F)(F)F)cc1)nn2C (stereo not drawn) the results were Methyltransferases inactive.
`Cc1[nH]c2ccccc2c1C(=O)Cn1nc2n(Cc3ccccc3)c(=O)c3ccccc3n2c1=O` gave Methyltransferases inactive.
`O=C(NCc1nc2ccccc2c(=O)n1-c1ccc(F)cc1)Nc1ccc(Cl)c(C(F)(F)F)c1` gave Methyltransferases inconclusive.
For COc1cc(CCCO)ccc1O[C@@H]1O[C@H](CO)[C@@H](O)[C@H](O)[C@H]1O the results were Methyltransferases inactive.
Screening Cc1nc(C)c(C(=O)NCCc2ncc(C)n2C2CC2)s1 returned Methyltransferases inactive.
For CC(C)CNC(=O)c1ccc2c(=O)n(C(C)C)c3nn(Cc4ccccc4Cl)c(=O)n3c2c1 the results were Methyltransferases inactive.
`C=C1C[C@]23C[C@H]1CC[C@H]2[C@]1(C)CC[C@H](O)[C@@](C)(C(=O)O)[C@H]1[C@@H]3C(=O)O` gave Methyltransferases inactive.
Screening CC(C)n1cnnc1C1CCCN1C(=O)Nc1ccccc1 (stereo not drawn) returned Methyltransferases inactive.
COc1ccc(-c2cc(=O)oc3cc(OC(C(=O)O)c4ccccc4)ccc23)cc1 (stereo not drawn) was read as Methyltransferases inactive.
For CCc1cc2c(cc3n2CC(C)(C(=O)NC2CCCCCC2)N(Cc2ccc(C)cc2)C3=O)s1 (stereo not drawn) the results were Methyltransferases inactive.
CS(=O)(=O)c1ccc(C2=C(c3ccccc3)C(=O)OC2)cc1 was read as Methyltransferases inactive.
Screening CCn1c(=O)n(CC)c2cc(S(=O)(=O)N3CCN(c4ccccc4)CC3)ccc21 returned Methyltransferases inactive.
COc1ccc(CN2Cc3[nH]cnc3C[C@H]2c2nc(Cc3ccccc3)no2)cc1 was read as Methyltransferases inactive.
Screening COc1ccccc1N1CCN(C(=O)Cn2c(=O)n3nc(C)nc3c3ccccc32)CC1 returned Methyltransferases inactive.
COc1ccc(CNC(=O)[C@@H](C)C2CC[C@@]3(C)CC[C@H](NC(=O)COc4ccccc4)[C@@H](C)[C@@H]3[C@H]2O)cc1 (stereo partly drawn) was read as Methyltransferases inactive.
CN1CC[C@@H](NC(=O)Nc2ccc(C#N)cc2)C[C@@H]1c1nc2ccccc2[nH]1 was read as Methyltransferases inactive.
